Mtb growth: Mycobacterium tuberculosis H37Rv growth inhibition, cell based, confirmatory dose response (AID 1949); most inactive calls were filed without a number and no value below 0 was filed; one-dose inhibition, % at 10 µg/mL; IC50 in µg/mL for titrated hits; 100,000 tested, 1.6% active;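 active = confirmed in a dose series; inconclusive = about 50% or more but not retested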;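 also: bacteria grown 7 days with compound before Alamar blue readout; 0% = untreated bacteria and 100% = reference antibiotic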
Numbers without * were called inactive; i = inactive; ? = inconclusive. An excerpt; rates above refer to the full screens.

SMILES	Mtb growth
CCCCc1[nH]nc2c1C(c1ccc(Cl)cc1Cl)C(C#N)=C(N)O2 (stereo not given)	2%
O=C(c1cccc(S(=O)(=O)Nc2ccc(F)cc2)c1)N1CCCc2ccccc21	i
CS(=O)(=O)N(CC(=O)N1CCCCCC1)c1ccccc1Cl	i
COc1ccc(Cl)cc1NC(=S)Nc1ccccc1N1CCOCC1	i
N#C/C(=C\c1ccc(N2CCC(Cc3ccccc3)CC2)c([N+](=O)[O-])c1)c1nn(CCO)c(N)c1C#N	i
CCc1c(C)sc(NC(=S)Nc2cccnc2)c1C(=O)OC	i
Cn1nnc(C(O)CNCc2cccs2)n1 (stereo not given)	i
Cc1cc(Br)cc(C)c1OC(=O)c1cccc([N+](=O)[O-])c1	i
CN1C(=O)C2C(C1=O)N1C(c3cccs3)C3C(=O)N(C)C(=O)C3N1C2c1cccs1 (stereo not given)	i
CCc1cccc(CC)c1NC(=O)C1CCN(S(=O)(=O)c2ccc(OC)cc2)CC1	i
CCOc1ccc(C(=O)Nc2c(C)cccc2C)cc1Cl	i
O=C(Cn1cc(C(=O)c2cccs2)c2ccccc21)NCc1ccccc1	i

Reprinted from the part before: two compounds, then new ones.
SMILES	Mtb growth
CCOc1ccc(C(=O)Nc2c(C)cccc2C)cc1Cl	i
O=C(Cn1cc(C(=O)c2cccs2)c2ccccc21)NCc1ccccc1	i
Cc1ccc(OCC(=O)Nc2ccc(Br)c(C)c2)cc1C	17%
Cc1ccc(O)c(NC(=O)COc2ccc(C)c(C)c2)c1	i
COc1ccc(NC(=S)NCCN2CCC(C)CC2)cc1	i
CCOC(=O)c1c(NC(=O)CC2NCCNC2=O)sc2c1CCCC2 (stereo not given)	i
Cc1ccc(NC(=O)COc2ccc(Cl)cc2Cl)c(Br)c1	i
O=C(CS(=O)(=O)c1ccccc1)Nc1nc2ccccc2s1	i
CS(=O)(=O)C1(S(C)(=O)=O)CCCCC1	5%
O=C(O)c1cc([N+](=O)[O-])ccc1Sc1ccc(Cl)cc1	i
O=C(CSc1ncccn1)N1CCN(c2ccccc2)CC1	i
CCOC(=O)c1c(NC(=O)c2ccc(Cl)cc2)sc(C(=O)Nc2cccc(OC)c2)c1C	i
CN(c1ccc(C(=O)Nc2cccc3ccccc23)cc1)S(C)(=O)=O	i
Cc1ccc(S(=O)(=O)N(CC(=O)NCc2ccco2)Cc2cccc(C)c2)cc1	i

Reprinted at random: 7 records from the list, in no set order.
SMILES	Mtb growth
O=C(CSc1ncccn1)N1CCN(c2ccccc2)CC1	i
CN(c1ccc(C(=O)Nc2cccc3ccccc23)cc1)S(C)(=O)=O	i
Cc1ccc(OCC(=O)Nc2ccc(Br)c(C)c2)cc1C	17%
Cc1ccc(S(=O)(=O)N(CC(=O)NCc2ccco2)Cc2cccc(C)c2)cc1	i
Cc1ccc(NC(=O)COc2ccc(Cl)cc2Cl)c(Br)c1	i
O=C(CS(=O)(=O)c1ccccc1)Nc1nc2ccccc2s1	i
CCOC(=O)c1c(NC(=O)CC2NCCNC2=O)sc2c1CCCC2 (stereo not given)	i

Remaining list, next part:
SMILES	Mtb growth
O=C(NCC1CCCO1)c1ccc(COc2cccc3ccccc23)cc1 (stereo not given)	?
CCOC(=O)c1cccc(NC(=O)CSCc2ccccc2)c1	24%
O=C(CSc1nnc(COc2ccccc2)n1-c1ccccc1)Nc1ccc(Br)cc1F	i
Cc1ccc(C(O)(C(=O)N(C)N(C)C)c2ccc(C)cc2)cc1	i
COc1ccc(C(NC(=S)Nc2ccccc2)c2ccccc2)cc1 (stereo not given)	3%
CC(NC(=O)c1ccc(Cl)cc1Cl)c1nnc(SCC(=O)Nc2ccccc2F)n1C (stereo not given)	i
CCOC(=O)N1CCN(C(=O)CNS(=O)(=O)c2ccccc2)CC1	i
O=C(Nc1ccc(CN2CCCCC2)cc1)c1cccc(F)c1	i
O=C(CNS(=O)(=O)c1ccc([N+](=O)[O-])cc1)OCc1c(F)cccc1Cl	17µg/mL*
CC1CCN(c2nc3c(c(=O)n(Cc4ccc(F)cc4)c(=O)n3C)n2C)CC1	i
CCCCC(=O)Nc1cccc(C(=O)Nc2ccccc2C(=O)O)c1	i
O=C(Nc1cccc(C(F)(F)F)c1)c1cc([N+](=O)[O-])ccc1N1CCOCC1	i

A section taken from the entries so far, as a working copy:
SMILES	Mtb growth
CCCCc1[nH]nc2c1C(c1ccc(Cl)cc1Cl)C(C#N)=C(N)O2 (stereo not given)	2%
O=C(c1cccc(S(=O)(=O)Nc2ccc(F)cc2)c1)N1CCCc2ccccc21	i

Next entries:
SMILES	Mtb growth
Cc1onc(-c2ccccc2Cl)c1C(=O)NC(CC(C)C)C(=O)O (stereo not given)	3%
COc1ccc(CN2C(=S)N(c3ccc(F)cc3)C(=O)C2CC(=O)Nc2ccccc2)cc1OC (stereo not given)	i
Cc1ccn(C(=O)COc2ccc(C(C)C)cc2Br)n1	i
CCOc1ccc(N2CC(O)=C(c3nc4ccccc4s3)C2=N)cc1	i
COc1ccc(C)cc1NCc1ccc(OC)c(C)c1OC	i
CC(C)c1cc(Br)ccc1NC(=O)CSc1nnc(C(C)NC(=O)c2ccccc2)n1C (stereo not given)	i
CC1(C)CC(=O)c2cnc(NC(=O)c3ccco3)nc2C1	2%
CN1CCN(c2ccc(NC(=O)c3cccc(I)c3)cc2)CC1	i
CC(C)=CCOc1ccc2c(-c3cccc([N+](=O)[O-])c3)cc(=O)oc2c1	i
COc1cccc2cc(C(=O)NC(C)(C)C)c(=O)oc12	i
CS(=O)(=O)N(CC(=O)Nc1cccc(F)c1)c1cccc(C(F)(F)F)c1	4%
Clc1ccc(Br)cc1-c1nc(-c2ccncc2)no1	5%
CSc1ccccc1NC(=O)CN(C)S(=O)(=O)c1ccc(F)cc1	i
CC(C)CC(C(=O)O)N1C(=O)c2ccccc2C1=O (stereo not given)	i
CSc1ccccc1NS(=O)(=O)c1ccc([N+](=O)[O-])cc1	i
O=C(Nc1nc(-c2ccccc2)c2ccccc2n1)c1ccccc1	i
COc1ccccc1N1CCN(S(=O)(=O)c2cccc(F)c2)CC1	i
CCN(CC)S(=O)(=O)c1ccc(NC(=O)COc2ccc(Br)cc2)cc1	3%
O=C(C1CCCO1)N1CCN(C(=S)NCc2ccc(Cl)cc2)CC1 (stereo not given)	i
CC1=C(C)CC(C(=O)N2CCN(Cc3ccc4c(c3)OCO4)CC2)C(C(=O)O)C1 (stereo not given)	5%
O=C(CSCc1ccccc1Cl)Nc1ccc(S(=O)(=O)N2CCCCC2)cc1	2%
CCc1ccccc1OCC(=O)Nc1c(C)cc(C)cc1C	28%
COc1ccc(N2CCN(Cc3nc4c(c(=O)n(C)c(=O)n4C)n3Cc3cccc(C)c3)CC2)cc1	i
CS(=O)(=O)N(CC(=O)Nc1ccccc1C(=O)NCCc1ccccc1)c1cccc(C(F)(F)F)c1	5%
CN(C)S(=O)(=O)c1ccc(NC(=O)c2ccccc2Br)cc1	i
CC(Sc1n[nH]c(N)n1)C(=O)OCc1ccccc1 (stereo not given)	i
O=C(Nc1cccc(C(F)(F)F)c1)c1ccccc1Sc1ccccc1[N+](=O)[O-]	i
N/C(=N\OC(=O)N1CCOCC1)c1ccc(Br)cc1	35%
Cc1nc2ccccc2nc1OCc1cccc([N+](=O)[O-])c1	i
Cc1ccc(-c2nc3ncccc3o2)cc1NC(=O)c1sc2ccccc2c1Cl	5%
O=C(COc1ccc(-c2ccccc2)cc1)NNC(=O)C(F)(F)F	2%
Cc1nn(-c2ccccc2)c(C)c1NC(=O)Cc1ccc2ccccc2c1	i
Cc1ccc(C(=O)N2CCN(c3ccc(NC(=O)c4ccccc4F)cc3)CC2)cc1	1%
O=C(Nc1ccccc1)Nc1ccc(I)cn1	7%
COCc1cc(=O)[nH]c(/N=C(/NC(=O)c2ccccc2)Nc2ccc(F)cc2)n1	i
O=C(CSc1nc2ccccc2[nH]1)Nc1cccc(I)c1	i
O=C(CSc1ccccc1)Nc1nnc(Cc2ccccc2)s1	1%
CCOC(=O)c1c(NC(=O)c2ccoc2C)sc(C(=O)N(CC)CC)c1C	i
Cc1nc2ccccc2n1C(=O)c1ccccc1F	i
Cc1cc(C)cc(C(=O)Nc2ccc(CN3CCOCC3)cc2)c1	i
O=C(c1ccc(S(=O)(=O)N2CCCCC2)cc1)N1CCN(c2cccc(Cl)c2)CC1	i
NC(=O)CSc1nnc(SCc2ccc(F)cc2)s1	9µg/mL*
O=C1CC(Sc2ccccc2)C(=O)N1c1ccccc1 (stereo not given)	i
CCC(C)c1ccccc1NC(=O)c1ccc(C(C)C)cc1 (stereo not given)	8%
COc1cc(C=O)ccc1OCC(=O)Nc1c(C)n(C)n(-c2ccccc2)c1=O	i
O=C(Nc1ccccc1)Nc1ccc2c(c1)OCO2	i
CC(NC(=O)c1cnn2c(C(F)F)cc(-c3ccccc3)nc12)c1ccccc1 (stereo not given)	i
O=C(Nc1nc(-c2ccc(F)cc2F)cs1)c1ccccc1F	7%
CNC(=O)c1ccc(-c2nn(C)c(=O)c3ccccc23)cc1	i
COc1cc(-c2nnn(CC(=O)Nc3ccccc3C)n2)cc(OC)c1OC	i
CS(=O)(=O)N(CC(=O)Nc1ccc(Oc2ccccc2)cc1)C1CCCCC1	9%
COc1ccccc1NC(=O)CN(C1CCCCC1)S(=O)(=O)c1ccc(C)cc1	i
Cc1ccc(C(C)C)c(OCc2nnc(SCC(=O)Nc3nccs3)n2C)c1	i
CCOC(=O)CCc1c(C)c2ccc(OCc3cc([N+](=O)[O-])ccc3OC)cc2oc1=O	i
COc1ccccc1NC(=O)CN(C)C	i
O=C(/C=C/c1ccccc1OC(=O)c1cccnc1)c1ccc(Cl)cc1	5.6µg/mL*
Cc1ccc(S(=O)(=O)/N=C2\NC(=O)/C(=C\c3ccc4c(c3)OCO4)S2)cc1	i
S=c1[nH]nc(-c2ccncc2)n1CCc1ccccc1	i
Cc1ccc(SCCNS(=O)(=O)c2ccc(Br)s2)cc1	i
CC(Oc1ccccc1F)C(=O)N(C)Cc1ccccc1 (stereo not given)	i

Later entries:
SMILES	Mtb growth
COc1cc([N+](=O)[O-])cc2cc(C(=O)NCCCN3CCOCC3)c(=O)oc12	i
C#CCOc1ccc(CO)cc1Br	i
N/C(=N\c1nc(-c2ccccc2)cc(=O)[nH]1)Nc1ccc2c(c1)OCCO2	1%
O=C(Nc1ccc(NC(=O)c2sc3ccccc3c2Cl)cc1Cl)c1ccco1	4%
Cc1cc(C)c(C)c(OCC(=O)O/N=C(\N)Cc2cccc3ccccc23)c1	i
COCc1cc(C)nc2sc(C(=O)Nc3cc(C)ccc3F)c(N)c12	i
Cn1c(COc2ccccc2)nnc1SCC(=O)Nc1ccc(Br)c(Cl)c1	i
O=C1C(=O)N(Cc2ccccc2)CCN1Cc1ccccc1	i
CCOC(=O)CCSc1nc2c(c(C(F)(F)F)c1C#N)CCCCC2	20%
CC(OC(=O)c1ccc(NC(=O)c2ccccc2)cc1)C(=O)c1ccccc1 (stereo not given)	i
Cc1cc(C)nc(SCCOc2ccccc2Cl)n1	i
Cc1ccc([N+](=O)[O-])c(OCCCN2C(=O)NC(C)(C)C2=O)c1	i

Of the compounds above, these contain a cyano group:
SMILES	Mtb growth
CCCCc1[nH]nc2c1C(c1ccc(Cl)cc1Cl)C(C#N)=C(N)O2 (stereo not given)	2%
N#C/C(=C\c1ccc(N2CCC(Cc3ccccc3)CC2)c([N+](=O)[O-])c1)c1nn(CCO)c(N)c1C#N	i
CCOC(=O)CCSc1nc2c(c(C(F)(F)F)c1C#N)CCCCC2	20%

The list continues.
SMILES	Mtb growth
CNc1nc(SC(C)C(=O)OC)nc(N2CCOCC2)n1 (stereo not given)	i
CCOc1ccc(C(=O)Nc2cc(C)cc(C)c2)cc1OCC	i
C=CCOc1ccc2c(C)cc(=O)oc2c1C(=O)c1ccccc1	i
CCCSc1ncnc2sc(-c3ccccc3)cc12	i
O=C(NCCOc1ccccc1)C1CC(=O)N(c2ccc(Cl)cc2)C1 (stereo not given)	i
Fc1ccc(-n2c(-c3ccc(Cl)cc3)n[nH]c2=S)cc1Cl	1%
COCCCNC(=O)c1cc(Br)c(C)c(C)c1C	i
CC(C)C(=O)N1CCN(c2ccc(NC(=S)NC(=O)c3cccs3)cc2Cl)CC1	3%
CC(C)C(NC(=O)c1ccccc1N(Cc1ccccc1)S(C)(=O)=O)C(C)C	2%
NC(=O)c1ccccc1NC(=O)Nc1cccc([N+](=O)[O-])c1	i
CN(c1ccc(C(=O)Nc2cc(Cl)ccc2Cl)cc1)S(C)(=O)=O	i
COc1ccc(OC)c(S(=O)(=O)ON2C(=O)c3ccccc3C2=O)c1	i
COCCN1C(=O)C(O)=C(C(=O)c2ccco2)C1c1ccc(OCc2ccccc2)c(OC)c1 (stereo not given)	i
Cc1ccc(S(=O)(=O)Nc2nnc(CC(C)C)s2)cc1	i
CC(C)NS(=O)(=O)c1ccc(OCC(=O)N(C)Cc2ccccc2)cc1	i
COc1ccc(Br)cc1C(=O)NC(=S)Nc1ccccc1F	i
CCOC(=O)NCCc1cccc(Cl)c1	1%
O=c1[nH]c2ccc(S(=O)(=O)N3CCOCC3)cc2o1	i
COc1ccc(-c2cc(-c3nnc(N)o3)no2)cc1	i
CCOC(=O)c1cc(NC(=O)CSc2nc3ccccc3[nH]2)ccc1Cl	5%
CCNC(=O)c1oc2c(c1C)C(=O)CC(C)(C)C2	i
COC(=O)c1ccccc1NC(=O)C1CC=CCC1C(=O)O (stereo not given)	i
COc1ccc(-c2nc(N)n(C(=O)CCc3ccccc3)n2)cc1	i
CCOC(=O)CCc1c(C)c2ccc(OC3CCCCC3=O)c(C)c2oc1=O (stereo not given)	i
O=C(CSc1nnc(NC(=O)c2ccccc2Br)s1)Nc1ccccc1F	4%
COc1ccccc1NC(=O)C(C)Sc1ccc(Cl)cc1 (stereo not given)	i
COc1cc(C)c(C(C)C)cc1S(=O)(=O)n1cnc(C)c1	5%
Cc1nnc(NC(=O)c2ccc(S(=O)(=O)c3ccccc3)cc2)s1	i
COc1c(C)cc(S(=O)(=O)N2CCN(c3ccc(Cl)cc3)CC2)c(C)c1C	i
O=C(CSc1nnnn1-c1ccccc1)N1CCN(c2ccccc2)CC1	i
CC(=O)c1cccc(NS(=O)(=O)c2ccc(NC(=O)c3ccccc3Cl)cc2)c1	i
